# LANA-H2A inh: blockers of LANA interaction with H2A/H2B – biochemical, FP readout, HTS, primary screen | Protein LANA1 (Human herpesvirus 8 type P (isolate GK18)), Q9QR71 | cell-free LANA-H2A/H2B peptide, fluorescence polarization | inhibition, % (concentration not given with the values) | 320,000 tested, 0.6% active; in the data active = inhibition mostly above about 10%, no sharp cut-off; inactive = mostly below about 6.7%;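 note: stock transfer was 7.5 nL into about 10 µL; 0% = median of vehicle wells and 100% = median of positive control wells; one replicate is shown; the record names a cut of 25% in any replicate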
# Target sequence (Q9QR71 whole entry, looked up): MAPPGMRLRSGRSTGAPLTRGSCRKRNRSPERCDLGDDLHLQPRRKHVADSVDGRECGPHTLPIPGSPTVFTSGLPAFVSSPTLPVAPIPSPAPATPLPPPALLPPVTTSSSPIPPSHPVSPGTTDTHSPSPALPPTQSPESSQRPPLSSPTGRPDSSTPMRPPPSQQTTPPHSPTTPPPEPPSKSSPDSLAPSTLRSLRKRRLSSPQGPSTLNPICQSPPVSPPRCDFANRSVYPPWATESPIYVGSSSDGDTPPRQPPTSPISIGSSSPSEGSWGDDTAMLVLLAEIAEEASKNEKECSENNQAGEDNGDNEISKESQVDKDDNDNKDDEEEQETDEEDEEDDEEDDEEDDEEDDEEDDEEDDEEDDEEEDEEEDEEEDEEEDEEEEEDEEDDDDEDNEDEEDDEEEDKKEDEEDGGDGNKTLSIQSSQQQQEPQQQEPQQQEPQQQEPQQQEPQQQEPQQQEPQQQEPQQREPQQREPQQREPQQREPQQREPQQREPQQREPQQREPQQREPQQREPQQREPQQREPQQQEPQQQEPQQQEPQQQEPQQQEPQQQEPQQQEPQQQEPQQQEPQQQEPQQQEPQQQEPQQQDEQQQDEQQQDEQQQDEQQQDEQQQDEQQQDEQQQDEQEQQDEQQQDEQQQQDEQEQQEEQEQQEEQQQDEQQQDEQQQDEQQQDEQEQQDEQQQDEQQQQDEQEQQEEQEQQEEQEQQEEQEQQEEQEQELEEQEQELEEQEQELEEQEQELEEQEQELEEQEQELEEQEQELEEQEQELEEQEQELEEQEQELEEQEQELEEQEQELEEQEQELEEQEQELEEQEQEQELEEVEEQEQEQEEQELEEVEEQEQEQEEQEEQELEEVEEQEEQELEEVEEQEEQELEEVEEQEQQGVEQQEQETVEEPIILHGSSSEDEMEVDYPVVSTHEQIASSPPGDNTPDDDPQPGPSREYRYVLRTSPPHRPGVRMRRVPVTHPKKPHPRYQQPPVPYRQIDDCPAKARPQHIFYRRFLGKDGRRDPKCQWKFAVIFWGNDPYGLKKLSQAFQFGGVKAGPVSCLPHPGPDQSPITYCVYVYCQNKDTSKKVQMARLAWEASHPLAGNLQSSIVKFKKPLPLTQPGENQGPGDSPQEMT
# Calb FLC: C. albicans growth inhibition with fluconazole, primary screen, CaCi-2 strain, Alamar Blue fluorescence. C. albicans CaCi-2 (fluconazole-resistant clinical isolate) + fluconazole, 48 h. growth inhibition, % (concentration not given with the values). 300,000 tested, 0.57% active;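 active = most replicates above 75%; inconclusive = exactly half above 75%; inactive = most below 75%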;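 note: all wells also contain fluconazole at 8 µg/ml as a sub-toxic cotreatment; 0% = median of DMSO wells and 100% = median of geldanamycin control wells; wells of about 8 µL received 7.5 nL stock; the first replicate is given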
# UCH37 DUB inh: inhibitors of human UCH37 deubiquitinase, primary screen, biochemical, Ub-AMC cleavage, fluorescence. Ubiquitin carboxyl-terminal hydrolase isozyme L5 (Homo sapiens), Q9Y5K5. purified proteasome/UCH37. inhibition, % (no concentration beside the values). 330,000 tested, 0.33% active;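 active = mean of two replicates above 20%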;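 note: 0% = compound-free wells with enzyme and 100% = wells lacking proteasome; stock transfer was 100 nL into about 20 µL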
#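 Test system – human UCH37 enzyme supplied as purified proteasome complex · Incubation – 30 min preincubation with enzyme, 25 min cleavage at room temperature · Detection – AMC fluorescence from Ub-AMC cleavage, excitation 355 nm, emission 460 nm · Benchmarks – no-proteasome wells (full inhibition) and compound-free wells (no inhibition)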
# B2AR ag: beta2AR agonists driving receptor internalization, primary screen, cell-based, FAP fluorogen, flow cytometry | Am2.2-beta2AR cells; reference of the scale not given here | response, % (test concentration not listed) | AID 504454, 2011 | 340,000 tested, 0.43% active | Beta-2 adrenergic receptor (Homo sapiens), P07550;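 active = response above a set limit, near 3 SD of response in nonfluorescent compounds, cut at about 42% in these data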;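 note: stock transfer was 100 nL into about 11 µL; a reference agonist was the positive control; negative values mostly stem from fluorescent compounds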
# RanGTP-Impb inh: inhibitors of RanGTP-importin-beta interaction, primary screen, biochemical, FRET, CFP-Ran, YFP-importin-beta, homogeneous. Ran GTPase (GTP-bound) - importin-beta complex. cell-free CFP-Ran/YFP-importin-beta FRET ratio. inhibition, % (concentration not given with the values). 300,000 tested, 1.1% active. AID 2216, 2009;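 active = most replicates above 15%; inconclusive = exactly half above 15%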;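 note: 0% = DMSO wells and 100% = Ran loaded with GDP instead of GTP; wells of about 40 µL received 100 nL stock; the first replicate is given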
# Beta cell apopt: inhibitors of cytokine-induced beta cell apoptosis, primary screen, luminescence | INS-1E cytokine-induced death, ATP luminescence, 48 h; percent of positive-control rescue, neutral wells zero | protection from apoptosis, % (test concentration not listed) | 300,000 tested, 0.8% active;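 active = all replicates at 75% or more, or half of them and the mean; inconclusive = half reach 75% but not the mean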;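 note: 0% = cytokine-treated negative control wells and 100% = positive control rescue; higher means more ATP so stronger rescue from cytokine killing; wells of about 40 µL received 100 nL stock; the first replicate is given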
# Bfl-1 A1 inh: caspase 3/7 activation in MEF A1-2A-BIM cells, primary screen, A1 inhibitor project, cell-based, luminescence, HTS | 330,000 tested, 0.066% active | Caspase-Glo 3/7 luminescence, 3 h; percent of clofoctol response, vehicle zero | caspase activation, % (test concentration not listed);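 active = over half of replicate activation scores above 10%, or exactly half above 10 with the replicate mean above 10; inconclusive = replicate mean below 10 yet half the replicates above 10; inactive = over half of replicates below 10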;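 note: wells of about 30 µL received 50 nL stock; many hits fall short of the cut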
# T cruzi inh: inhibitors of intracellular T. cruzi growth, primary screen, luminescence, NIH3T3 host cells; AID 1885, 2009; inhibition, % (no concentration beside the values); 300,000 tested, 1.4% active; T. cruzi beta-gal in NIH3T3, 90 h;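 active = mean inhibition across valid replicates above about 55%, limit read from the data; inconclusive = mean below that limit but half or more replicates reach it; inactive = mean below it, under half of replicates reach it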;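 note: signal also drops with host cell toxicity which is not excluded here; 0% = plate median of DMSO wells and 100% = zero luminescence signal; higher percent means less beta-gal luminescence so fewer parasites; stock transfer was 50 nL into about 50 µL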
# The depositor's hits bear a star; i = inactive; u = inconclusive; x = not tested or not shown.
SMILES,LANA-H2A inh,Calb FLC,UCH37 DUB inh,B2AR ag,RanGTP-Impb inh,Beta cell apopt,Bfl-1 A1 inh,T cruzi inh
N#Cc1ccc(NC(=O)Cn2cnc(S(=O)(=O)N3CCCCC3)c2)cc1,1.0,-3,0.7,-12,6.9,-4,0.9,-37
COc1cc2c(cc1NC(=O)CN(C)Cc1nc3ccccc3c(=O)[nH]1)oc1ccccc12,2.8,-15,1.2,8,2.2,10,0.5,6
CC(C)(C)c1ccc(Cn2nnc3c(=O)[nH]c(C4CCCN(C(=O)c5ccco5)C4)nc32)cc1 (stereo not given),-0.8,-1,7.0,10,2.2,6,0.7,44
CCOC(=O)c1c(S(=O)(=O)N2CCCCC2C)c(C)n(C)c1C (stereo not given),-0.5,25,0.1,-1,2.8,-11,0.4,-8
COc1ccccc1NC(=O)CN1C(=O)C(C)SC(C)C1=O (stereo not given),-3.5,8,3.4,3,0.5,0,-1.3,-17
CCOCCOCN(C#N)c1nc(OC)nc(N(C)C)n1,-1.7,-9,1.5,7,1.0,-1,0.8,-11
COc1ccccc1-c1nc(SCC(=O)Nc2ccccc2F)n[nH]1,-0.3,-14,-1.9,15,1.1,2,0.5,-4
Cc1ccc(N(C(=O)C2CCCC2)C2C=CS(=O)(=O)C2)cc1 (stereo not given),3.3,4,-0.1,11,0.7,-4,-0.2,-18
COc1ccc(-c2coc3c(CN4CCCCC4C)c(O)ccc3c2=O)cc1 (stereo not given),2.1,-1,i,-1,2.4,-1,-0.3,5
Cc1ccc2nc(SCC(=O)NCc3ccccc3Cl)nc(=O)n2c1,-2.4,-6,-16,0,-0.2,x,-0.2,-14
Cc1ccc(CN2C(=O)CSc3ccc(C(=O)NCCN4CCOCC4)cc32)cc1,1.6,-10,2.1,-6,7.5,12,0.1,4
COc1ccc(CNC(=O)CN(C(=O)CCC(=O)Nc2ccccn2)c2ccc3c(c2)OCO3)cc1,-3.3,0,4.7,-2,2.1,1,0.3,0
CN(CC(=O)NCc1ccco1)S(=O)(=O)c1ccc(F)cc1,0.2,-1,1.5,-4,0.5,-4,0.4,-2
O=C(Nc1ccc(F)cc1)c1cccc2c1C(=O)N(CC1CCCO1)C2 (stereo not given),3.4,-7,3.9,-2,u,-5,-1.5,13
Cc1ccc(NS(=O)(=O)c2cc(-c3cc(C)no3)ccc2C(C)C)nc1,3.0,-2,-71,-4,-2.1,-8,0.8,0
O=C(COc1ccccc1)NS(=O)(=O)c1ccccc1,1.5,-11,4.4,-6,-2.3,-4,-0.2,-7
CCOC(=O)C1=C(C)OC(N)=C(C#N)C1c1c(C)nn(-c2ccccc2)c1Cl (stereo not given),3.7,44,0.7,6,1.3,-4,-0.6,1
CCOC(=O)N1CCc2c(sc3nc4n(c(=O)c23)N=C(C)CS4)C1,-1.6,-1,0.6,16,2.5,3,0.6,-3
Cc1onc(-c2ccccc2Cl)c1C(=O)N1CCCC1,-1.8,13,3.5,-7,-2.1,-6,0.9,6
O=C(OCCCOC(=O)c1ccccc1O)c1ccccc1O,0.5,4,x,x,-2.2,2,0.7,-4
O=C(c1ccc(S(=O)(=O)N2CCCC2)cc1)N1CCN(c2ccccc2F)CC1,-0.1,0,-1.8,-7,4.9,0,-0.1,0
CCCCOc1ccc(S(=O)(=O)NCc2csc(C)n2)cc1,-1.0,-4,1.8,-8,-1.4,2,-0.8,-15
O=C(Nc1ccc(N2CCOCC2)cc1)C1CC(=O)N(c2ccc(F)cc2)C1 (stereo not given),4.8,-12,-1.3,-3,0.5,-4,0.0,-7
O=C(Nc1ccncc1)c1cccc(F)c1,6.6,-5,1.3,-3,-5.4,4,-0.6,-1
Cc1occc1C(=O)NNC(=S)Nc1ccccc1,2.3,-18,0.2,3,-0.3,3,0.2,-6
# (list continues)
SMILES,LANA-H2A inh,Calb FLC,UCH37 DUB inh,B2AR ag,RanGTP-Impb inh,Beta cell apopt,Bfl-1 A1 inh,T cruzi inh
Cc1cc(C)n(-c2nc(NCCC(C)C)c3c4c(sc3n2)COC(C)(C)C4)n1,x,2,x,3,0.9,x,x,76*
CN(C)S(=O)(=O)c1cccc(NC(=O)CCSc2ccc(Cl)cc2)c1,1.2,12,5.6,1,4.7,4,-0.2,-1
CS(=O)(=O)NC1CCN(Cc2ccccc2)CC1,-7.8,3,3.9,-1,2.7,-4,0.2,2
O=C1C(Cl)=C(N2CCOCC2)C(=O)N1c1ccccc1,4.3,-13,3.5,-2,-5.0,-14,-0.9,-3
NS(=O)(=O)c1ccc(NS(=O)(=O)c2ccc(Br)cc2)cc1,-5.5,3,0.1,x,4.5,-4,0.2,-5
O=C1c2cccc3cccc(c23)C(=O)N1c1ccc(O)cc1,-1.4,37,-15,-6,u,-2,0.7,-3
CCc1ccccc1OCC(=O)NC1CCCC1,x,1,4.0,-7,2.2,x,x,-1
O=C(CSc1ccc2c(c1)OCCO2)NCC1CCCO1 (stereo not given),-0.8,-8,2.9,-5,3.1,-5,1.0,-8
Cc1ccc(C(=O)Nc2ccc(O)c(C(=O)O)c2)o1,2.1,0,0.4,-4,2.5,-9,-7.5,-5
CNC(=O)c1cc(S(=O)(=O)Nc2ccc3c(c2)OCCO3)ccc1C,-0.4,17,0.9,3,1.2,-2,-0.2,-32
CC(C)CNC(=O)CC(NCC(C)C)C(=O)O (stereo not given),2.9,1,-1.0,x,1.6,-9,-0.1,-12
COc1ccc(NS(=O)(=O)c2cc(C(=O)N3CCC3)ccc2C)cc1,0.2,x,5.7,-11,x,6,0.4,x
Nc1c(C(=O)c2ccc(Cl)cc2)sc2c1c(=O)[nH]c(=O)n2-c1ccccc1,1.3,15,0.9,-3,-0.4,1,-1.3,23
O=C(NCC1CCCO1)c1sc2ccccc2c1Cl (stereo not given),-1.4,0,4.5,-9,-0.2,-4,-5.8,21
CCc1nc2ccccc2c(C(=O)OC2CCOC2=O)c1C (stereo not given),0.0,-3,0.0,4,u,-2,0.4,-15
CCC1CCC2(CC1)NC(=O)N(CC(=O)N1CCc3ccccc31)C2=O (stereo not given),0.4,x,0.3,0,x,-8,0.9,x
CCOC(=O)C1CCN(C(=O)Cn2cc(C(=O)c3ccco3)c3ccccc32)CC1,3.5,16,9.5,3,-0.4,-4,0.1,0
Cc1ccc(OCC(=O)N/N=C\c2cn(C)c3ccccc23)c([N+](=O)[O-])c1,4.5,-17,x,-10,6.5,-1,-0.6,-16
COc1cccc2sc(Nc3nnc(-c4ccc(F)cc4)o3)nc12,4.2,117*,-68,9,-5.4,26,-4.6,43
O=c1c2cn[nH]c2nc(SCc2cc(=O)n3cc(Br)ccc3n2)n1-c1ccc(Br)cc1,3.4,33,-2.7,25,6.9,-16,0.5,18
O=c1c2cc3c(cc2[nH]c(=S)n1CCN1CCOCC1)OCO3,1.5,3,8.3,-10,0.5,-4,0.7,-4
CC(=O)C1=C(c2ccccc2)NC(=S)NC1c1cc(Cl)c(OC(C)C)c(Cl)c1 (stereo not given),-1.0,18,2.6,-2,-1.1,-3,-0.2,61*
O=C(Nc1ccc(Oc2c(F)c(F)c(F)c(F)c2F)cc1)OC1CCN2Cc3ccccc3N=C12 (stereo not given),15*,-4,x,102*,-0.7,71,-0.1,18
CCn1c(=O)n(Cc2ccco2)c(=N)c2c3c(sc21)COC(C)(C)C3,-1.3,-6,2.0,20,-3.3,-8,0.0,-3
COc1ccccc1NC(=O)CN1CCOCC1,4.9,9,1.0,7,0.3,-5,0.7,-15
# Additional structures.
SMILES,LANA-H2A inh,Calb FLC,UCH37 DUB inh,B2AR ag,RanGTP-Impb inh,Beta cell apopt,Bfl-1 A1 inh,T cruzi inh
CC(=O)c1cccc(NC(=O)COC(=O)COc2c(Cl)cc(Cl)c3ccc(C)nc23)c1,2.1,-3,-0.6,5,0.9,0,-0.3,-19
O=C(CNC(=O)c1ccc(Cl)cc1Cl)OCc1nnc(-c2ccccc2)o1,2.0,3,1.6,-4,u,6,0.7,-9
Cc1ccc(-c2nc(C3CCN(S(C)(=O)=O)CC3)no2)cc1,8.2,16,0.0,-2,2.9,-7,0.8,-14
CC(=O)Nc1ccc(OS(=O)(=O)c2ccccc2C)cc1,-0.1,-7,2.9,-4,2.8,-5,-0.5,-1
CCNC(=S)NNC(=O)c1cc(C)on1,-0.9,14,4.1,2,1.3,0,0.9,-11
COc1cccc(COC(=O)C2CCN(S(=O)(=O)c3ccc(C)cc3C)CC2)c1OC,27*,12,0.8,-7,-1.8,-2,0.5,-1
Cc1c(NC(=O)C(c2ccccc2)c2ccccc2)cccc1C(=O)O,-5.8,-1,0.9,1,3.8,0,0.0,-10
Cc1cc(C)n(-c2ccc(Cl)c(C(=O)Nc3ccc(-c4nnc5n4CCCCC5)cc3)n2)n1,3.3,-31,-5.8,10,u,5,-0.7,50
CCCCN(CC)C(=O)Cn1ncc2c1-c1cc(C)ccc1OC2,1.9,1,-0.7,-3,1.7,2,0.4,-23
CCn1c(SCC(=O)N2CCCC2)nnc1-c1ccc(S(=O)(=O)N2CCCCCC2)cc1,0.8,-3,1.9,2,7.1,9,0.2,20
Cc1ccsc1/C=N/Nc1ccc(C(=O)O)cc1,-9.6,-4,x,8,-2.1,4,-8.9,-14
O=C(Nc1ccsc1C(=O)N1CCCC1)c1ccccc1,-9.5,26,-0.3,4,-3.8,-2,-1.0,5
Cc1cc(=O)n2[nH]c(-c3ccc(F)cc3)nc2n1,-1.0,-2,1.9,0,6.0,8,-7.0,-6
CCOC(=O)N1CCC(N2Cc3cccc(C(=O)Nc4c(C)cccc4CC)c3C2=O)CC1,1.4,14,0.7,6,-2.4,4,0.1,22
COc1ccc(NC(=O)NNC(=O)C(C)Oc2ccc3ccccc3c2)cc1 (stereo not given),2.8,0,-1.5,3,3.3,0,0.7,-16
O=C(CN1C(=O)NC(c2ccccc2)(c2ccccc2)C1=O)Nc1ccc(N2CCOCC2)cc1,2.5,x,0.9,2,x,-1,1.1,x
COc1cc(C(=O)OC(C)C(=O)Nc2ccc3c(c2)OCCO3)cc(OC)c1OC (stereo not given),-8.5,x,3.0,2,x,4,-0.9,x
COc1c(C)cc(C(=O)C2CCCN(C(=O)c3cc(C4CC4)[nH]n3)C2)cc1C (stereo not given),-3.6,7,3.5,1,1.1,7,0.1,-3
Cc1cccc2c1-c1sc(C(=O)N3CCCCC3)cc1CO2,-6.8,14,-137,7,-3.1,3,-0.3,22
O=C(Nc1ccc(F)c(F)c1)C1=COCCO1,6.5,1,1.3,6,x,-8,-2.4,-11
CC(=O)C1=C(C)NC(SCSc2ccccc2)=C(C#N)C1c1cccnc1 (stereo not given),-0.2,-6,-11,x,1.8,-6,-0.5,30
CN(C(=O)COC(=O)c1ccc2c(c1)OCO2)C1CCS(=O)(=O)C1 (stereo not given),1.0,4,1.4,4,u,-5,0.0,-10

# Compounds as they come; about 4.3% have a hit in one of these screens.
